# Source: PubChem BioAssay (Broad Institute)
# Shh pathway inh: blocks Sonic Hedgehog signaling; Shh-LIGHT2 Gli-luciferase reporter, 30 h; inhibition, % (concentration not given with the values); actives 2.1% (n = 22,000); AID 2313;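 active = replicate mean of 65% or more; inconclusive = mean lower but half the replicates past it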;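 also: pathway switched on by Shh-conditioned medium diluted 1 in 25 in low serum; 100 nL library stock added to about 40 µL; 0% = median of neutral wells and 100% = positive control level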
# MITF inhib: MITF inhibition | inhibition, % (no concentration beside the values) | AID 2240 | TRPM1 promoter luciferase, luminescence, 24 h | actives 0.28% (n = 37,000);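 active = most replicates at 85% or more, or half of them and the mean; inconclusive = half reach 85% but not the mean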;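 also: human melanocyte line stably carrying TRPM1 promoter luciferase reporter; 0% = vehicle wells and 100% = a positive control; the first replicate is given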
# PD-1 reversal: reversal of PD-1 mediated T-cell inhibition | primary human CD4 T cells, PD-L1 beads, CellTiter-Glo 96 h | activation, % (no concentration beside the values) | 29,000 tested, under 10 active | AID 2316;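 active = replicate mean of 50% or more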;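 also: 0% = median vehicle wells and 100% = positive control; 100 nL library stock added to about 50 µL; numbers are from one replicate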
# YB-1 expression: YB-1 expression inhibition. U2OS, qRT-PCR YB-1 vs CDIP delta delta Cp, 16 h; hits give high values; zero = DMSO, each unit about twofold. AID 434959. delta delta Cp (YB-1 minus CDIP) (no concentration beside the values). actives 0.37% (n = 30,000);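 active = delta delta Cp rounded down to an integer at or above 3, about 3 SD of DMSO wells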;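 also: higher means less YB-1 transcript or more CDIP transcript relative to DMSO; stock transfer was 100 nL into about 100 µL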
# * = called active by the depositor; ? = inconclusive; · = no result given. An excerpt; count on the stated rates, not on these rows.
SMILES,Shh pathway inh,MITF inhib,PD-1 reversal,YB-1 expression
NS(=O)(=O)c1ccc(Cl)cc1Sc1ccccc1C(=O)O,-7,8,-0.2,0.2
Cc1noc(C)c1S(=O)(=O)Nc1cccc2c1O[C@H](CN(C)C(=O)Nc1ccccc1)[C@H](C)CN([C@@H](C)CO)C2=O,30,-4,0.2,-0.12
C[C@@H]1CN([C@@H](C)CO)C(=O)c2cc(NC(=O)Nc3ccccc3)ccc2O[C@@H]1CN(C)C(=O)Nc1ccccc1,-4,-15,·,-0.044
C[C@@H]1CN([C@H](C)CO)C(=O)Cc2cc(NC(=O)Nc3ccc4c(c3)OCO4)ccc2O[C@H]1CN(C)S(=O)(=O)c1ccccc1,-8,-6,1.0,0.17
O=C(CSc1n[nH]c(-c2ccccc2)n1)Nc1sc2c(c1C(=O)Nc1ccccc1)CCCC2,·,44,-0.9,·
Cc1ccc(C(O)c2nccc3ccccc23)cc1 (stereo unspecified),23,-8,2.4,-0.041
N#C/C(N=Cc1cccs1)=C(\C#N)NCc1ccccc1Sc1ccc(Cl)cc1,19,2,0.3,-0.25
Cc1noc(C)c1S(=O)(=O)Nc1ccc2c(c1)CC(=O)N([C@@H](C)CO)C[C@@H](C)[C@@H](CN(C)C(=O)Nc1cccc3ccccc13)O2,-15,0,0.5,0.0016
O=C(Nc1c(Cl)cc(Cl)cc1C(=O)NCc1cccnc1)c1cccc([N+](=O)[O-])c1,·,7,1.8,·
Cc1nc(SCC(=O)Nc2ccc(F)cc2)nc2c1CCCC2,·,17,-0.5,·
C[C@@H]1CCCCO[C@H](CN(C)S(=O)(=O)c2cn(C)cn2)[C@@H](C)CN([C@H](C)CO)C(=O)c2cc(NC(=O)Nc3ccc4c(c3)OCO4)ccc2O1,18,-11,·,-0.15
COc1ccccc1CNC(=O)c1cccc(NC(=O)c2ccccc2)c1,·,-19,-0.4,·
C[C@@H]1CN([C@@H](C)CO)C(=O)c2cccc(NC(=O)Nc3ccccc3)c2O[C@H]1CN(C)Cc1ccc(C(=O)Nc2ccccc2N)cc1,·,7,-0.8,-0.3
C[C@H]1CN([C@@H](C)CO)C(=O)c2cc(NC(=O)NC3CCCCC3)ccc2O[C@@H]1CN(C)S(=O)(=O)c1ccc(Cl)cc1,15,-4,0.4,-0.14
C[C@@H]1CN([C@H](C)CO)C(=O)c2cc(NC(=O)Nc3ccccc3)ccc2O[C@H]1CN(C)C(=O)Nc1ccc(C(F)(F)F)cc1,-16,-1,-0.6,-0.016
COc1ccc(CN(C)C[C@@H]2OCCCC[C@@H](C)Oc3ccc(NC(=O)CCCCCC(=O)Nc4ccccc4N)cc3C(=O)N([C@H](C)CO)C[C@@H]2C)cc1,·,1,0.7,-0.21
C[C@H](CO)N1C[C@H](C)[C@@H](CN(C)CC2CCCCC2)Oc2c(NC(=O)Nc3cccc4ccccc34)cccc2C1=O,-37,32,-2.2,0.021
C[C@@H]1CN([C@@H](C)CO)C(=O)c2cccc(NC(=O)Nc3ccc(F)cc3)c2O[C@H]1CN(C)C(=O)Nc1ccc(C(F)(F)F)cc1,-11,3,-0.3,-0.19
C[C@@H]1CN([C@@H](C)CO)C(=O)Cc2cc(NS(=O)(=O)c3ccc(F)cc3)ccc2O[C@@H]1CN(C)S(=O)(=O)c1ccc(Cl)cc1,-20,5,-2.3,0.45
Cc1ccc(S(=O)(=O)N(C)C[C@@H]2Oc3ccc(NC(=O)NC(C)C)cc3CC(=O)N([C@H](C)CO)C[C@H]2C)cc1,-7,0,0.7,-0.12
C[C@@H]1CN([C@H](C)CO)C(=O)c2cccc(NC(=O)C3CCOCC3)c2O[C@@H]1CN(C)Cc1ccc(C(=O)O)cc1,-10,-26,·,0.48
Cc1ccc(S(=O)(=O)Nc2ccc3c(c2)C(=O)N([C@H](C)CO)C[C@H](C)[C@H](CN(C)S(=O)(=O)c2cn(C)cn2)O3)cc1,·,-5,1.4,-0.23
C[C@@H]1CN([C@H](C)CO)C(=O)c2cc(NS(=O)(=O)c3ccccc3)ccc2O[C@H]1CN(C)C,·,4,·,0.059
Cc1ccc(S(=O)(=O)Nc2cccc3c2O[C@H](CN(C)S(=O)(=O)c2c(C)noc2C)[C@@H](C)CN([C@H](C)CO)C3=O)cc1,11,-18,2.0,0.21
CNC[C@H]1Oc2ccc(NC(=O)Nc3c(C)noc3C)cc2CC(=O)N([C@@H](C)CO)C[C@H]1C,11,-5,2.0,-0.11
C[C@@H]1CCCCO[C@H](CN(C)C(=O)c2ccncc2)[C@@H](C)CN([C@H](C)CO)C(=O)c2cc(NS(=O)(=O)c3cccs3)ccc2O1,-18,-15,-3.9,0.65
Cc1noc(C)c1NC(=O)N(C)C[C@H]1OCCCC[C@@H](C)Oc2ccc(NS(=O)(=O)c3ccc(F)cc3)cc2C(=O)N([C@H](C)CO)C[C@@H]1C,-3,9,1.7,0.012
CC(C)NC(=O)N(C)C[C@H]1Oc2ccc(NC(=O)Nc3ccc(C(F)(F)F)cc3)cc2CC(=O)N([C@@H](C)CO)C[C@H]1C,10,9,-5.3,0.053
COc1cc2c(cc1NC(=O)CCCN1C(=O)c3ccccc3C1=O)oc1ccccc12,·,12,-1.3,·
C[C@@H]1CN([C@H](C)CO)C(=O)c2cc(NC(=O)C3CC3)ccc2O[C@H]1CN(C)Cc1ccc(C(F)(F)F)cc1,11,1,-0.3,-0.052
COc1ccc(S(=O)(=O)N(C)C[C@@H]2Oc3c(NS(=O)(=O)c4cn(C)cn4)cccc3C(=O)N([C@@H](C)CO)C[C@H]2C)cc1,-24,5,1.0,-0.051
C[C@H](CO)N1C[C@H](C)[C@H](CN(C)C(=O)Nc2ccccc2)Oc2c(NC(=O)C3CCOCC3)cccc2C1=O,-92,-5,1.5,-1.2
COc1ccc(NC(=O)N(C)C[C@H]2Oc3c(NS(=O)(=O)c4cn(C)cn4)cccc3C(=O)N([C@@H](C)CO)C[C@@H]2C)cc1,-2,-6,2.1,0.13
Cc1cc(C(=O)Nc2cccc3c2O[C@@H](CN(C)C(=O)Nc2cccc4ccccc24)[C@H](C)CN([C@H](C)CO)C3=O)n(C)n1,13,11,·,0.47
C[C@H]1CN([C@@H](C)CO)C(=O)c2cccc(NC(=O)Nc3ccc(C(F)(F)F)cc3)c2O[C@H]1CN(C)S(=O)(=O)c1ccc(F)cc1,?,7,-2.9,-0.0033
Cc1noc(C)c1S(=O)(=O)Nc1ccc2c(c1)CC(=O)N([C@@H](C)CO)C[C@H](C)[C@@H](CN(C)C(=O)Nc1ccc(C(F)(F)F)cc1)O2,?,11,·,0.08
C[C@H]1CN([C@@H](C)CO)C(=O)c2cccc(NS(=O)(=O)c3ccc(F)cc3)c2O[C@H]1CN(C)S(=O)(=O)c1cccs1,27,0,-0.3,·
Cc1ccc(S(=O)(=O)Nc2cccc3c2O[C@H](CN(C)C(=O)Nc2ccc(C(F)(F)F)cc2)[C@@H](C)CN([C@@H](C)CO)C3=O)cc1,6,7,1.0,-0.15
CCC(Sc1nnc2c(n1)[nH]c1ccccc12)C(=O)Nc1cccc2ccccc12 (stereo unspecified),·,53,0.6,·
CCOC(=O)c1c(NC(=O)C(C)N2C(=O)c3ccccc3C2=O)sc2c1CCC(C)C2 (stereo unspecified),·,11,0.3,·

# Complete entries, looked up by structure. Order of values: Shh pathway inh, MITF inhib, PD-1 reversal, YB-1 expression
# CCOC(=O)c1c(NC(=O)C(C)N2C(=O)c3ccccc3C2=O)sc2c1CCC(C)C2 (stereo unspecified) is listed as ·, 11, 0.3, ·
# C[C@@H]1CN([C@H](C)CO)C(=O)c2cc(NC(=O)C3CC3)ccc2O[C@H]1CN(C)Cc1ccc(C(F)(F)F)cc1 is listed as 11, 1, -0.3, -0.052
# COc1cc2c(cc1NC(=O)CCCN1C(=O)c3ccccc3C1=O)oc1ccccc12 is listed as ·, 12, -1.3, ·

# Continuation.
SMILES,Shh pathway inh,MITF inhib,PD-1 reversal,YB-1 expression
C=C1CCC2C(C)(CO)CCCC2(C)C1CC/C(C)=C/C(=O)O (stereo unspecified),-27,·,·,-0.61
C[C@@H]1CN([C@H](C)CO)C(=O)Cc2cc(NC(=O)Cc3ccccc3)ccc2O[C@H]1CN(C)S(C)(=O)=O,-30,10,0.8,-0.17
C=CC1(C)C=C2CCC3C(C)(C)C(O[C@@H]4O[C@@H](CO)[C@H](O)[C@H]4O)CCC3(C)C2CC1O[C@@H]1O[C@H](CO)[C@@H](O)[C@H](O)[C@H]1O (stereo partly specified),99*,·,·,0.91
Cc1noc(C)c1S(=O)(=O)Nc1ccc2c(c1)C(=O)N([C@@H](C)CO)C[C@@H](C)[C@H](CN(C)CC1CCCCC1)O2,2,-10,1.3,-0.055
O=C(CC(NC1CC1)C(=O)O)c1ccc(Cl)cc1 (stereo unspecified),-5,-5,0.3,-0.38
O=C1/C(=C/c2ccccn2)CC/C1=C\c1ccccn1,·,-3,-3.9,0.21
CSc1sc(C(=O)/C=C/N(C)C)c(-c2ccccc2)c1C#N,-8,-22,0.3,-0.42
NC[C@@H]1O[C@H](c2ccccc2)Cc2c1ccc(O)c2O,35,13,·,-0.13
O=C(CSc1nc(Nc2ccccc2)nc(Nc2ccccc2)n1)N1CCN(c2ccccc2)CC1,·,-24,-0.1,·
C[C@H](CO)N1C[C@H](C)[C@@H](CN(C)S(=O)(=O)c2cccs2)Oc2ccc(NC(=O)Nc3ccc(F)cc3)cc2C1=O,11,-7,0.1,-0.15
Cc1cc(OCC(=O)Nc2ccccc2C(N)=O)c(C(C)C)cc1Br,·,49,-6.0,·
C[C@@H]1CN([C@H](C)CO)C(=O)Cc2cc(NC(=O)Nc3ccc(F)cc3)ccc2O[C@H]1CN(C)Cc1ccncc1,-12,2,-0.1,0.35
O=C(COc1ccc(Cl)cc1Cl)Nc1cccc(-c2nnc(-c3ccccc3)o2)c1,·,-55,-6.6,·
C[C@@H]1CN([C@H](C)CO)C(=O)c2cc(NC(=O)Cc3ccccc3)ccc2O[C@H]1CN(C)C,·,1,-0.6,-0.33
COc1ccc(CN(C)C[C@@H]2Oc3ccc(NC(=O)Nc4ccccc4)cc3CC(=O)N([C@@H](C)CO)C[C@@H]2C)cc1,·,-32,-0.9,-0.3
COc1ccc(NC(=O)Nc2cccc3c2O[C@H](CN(C)Cc2ccc(-c4ccccc4)cc2)[C@@H](C)CN([C@@H](C)CO)C3=O)cc1,-18,-11,2.8,0.27
COc1ccc(NC(=O)CSc2nc(-c3ccccc3)c(-c3ccccc3)o2)cc1OC,·,47,-4.1,·
CCc1ccc(OCCNC(=O)c2ccco2)cc1,-75,-38,0.1,-0.45
Cc1ccc(NC(=O)C(C)NS(=O)(=O)c2ccc(F)cc2)cc1Cl (stereo unspecified),·,5,0.0,·
COc1ccc(S(=O)(=O)N(C)C[C@@H]2Oc3c(NC(=O)c4cc(C)nn4C)cccc3C(=O)N([C@@H](C)CO)C[C@H]2C)cc1,-9,-9,-1.0,0.36

# Two entries from above, with bars between the fields.
SMILES | Shh pathway inh | MITF inhib | PD-1 reversal | YB-1 expression
C=C1CCC2C(C)(CO)CCCC2(C)C1CC/C(C)=C/C(=O)O (stereo unspecified) | -27 | · | · | -0.61
O=C(CSc1nc(Nc2ccccc2)nc(Nc2ccccc2)n1)N1CCN(c2ccccc2)CC1 | · | -24 | -0.1 | ·

# Next part:
SMILES,Shh pathway inh,MITF inhib,PD-1 reversal,YB-1 expression
C[C@@H]1CN([C@H](C)CO)C(=O)c2cccc(NC(=O)C3CCCCC3)c2O[C@@H]1CN(C)C(=O)Nc1ccc(C(F)(F)F)cc1,-17,14,-1.4,-0.53
O=C(Cn1c(=O)oc2ccccc21)Nc1cccc(C(=O)O)c1,·,-1,1.6,·
CC(C)NC(=O)Nc1ccc2c(c1)C(=O)N([C@H](C)CO)C[C@H](C)[C@@H](CN(C)C(=O)c1ccccc1)OCCCC[C@@H](C)O2,-9,-17,1.7,0.12
C[C@H](CO)N1C[C@H](C)[C@H](CN(C)S(=O)(=O)c2ccc(F)cc2)Oc2ccc(NC(=O)Nc3ccc(C(F)(F)F)cc3)cc2C1=O,·,28,-1.8,0.32
Cc1cc(C)cc(NC(=O)c2ccc(CSc3nnc(-c4cccc([N+](=O)[O-])c4)n3C)cc2)c1,·,21,-1.4,·
Cc1ccc(S(=O)(=O)Nc2ccc3c(c2)C(=O)N([C@H](C)CO)C[C@H](C)[C@H](CN(C)C(=O)Nc2ccc(F)cc2)OCCCC[C@@H](C)O3)cc1,-36,13,-1.4,0.16
O=C(O)CCc1ccc(-c2cccs2)n1CC1CCCO1 (stereo unspecified),·,-15,-0.9,·
COc1ccc(S(=O)(=O)Nc2cccc3c2O[C@H](CN(C)S(=O)(=O)c2cn(C)cn2)[C@H](C)CN([C@H](C)CO)C3=O)cc1,1,-1,2.3,0.46
C[C@H]1CN([C@@H](C)CO)C(=O)Cc2cc(NC(=O)Nc3ccc(F)cc3)ccc2O[C@H]1CN(C)S(C)(=O)=O,·,-3,·,0.14
C[C@H]1CN([C@@H](C)CO)C(=O)c2cccc(NS(=O)(=O)c3cccs3)c2O[C@@H]1CN(C)C(=O)NC1CCCCC1,-4,-8,·,-0.16
